Screening results from PubChem BioAssay.
Mtb growth – M. tuberculosis H37Rv growth inhibitors, H37Rv strain (AID 1626) | one-dose inhibition, % at 10 µM; IC50 in µM for titrated hits | M. tuberculosis H37Rv growth inhibition; higher % means a stronger effect | 220,000 tested, 0.95% active;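 active = confirmed in a dose series; inconclusive = inhibition above 80% but not taken into the dose series; inactive = below 80% or under 30% at every dose of the series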;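 note: bacteria incubated seven days before Alamar blue readout; 0% = bacteria only wells and 100% = bacteria with antibiotic wells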
Mtb bLac sens – beta-lactam sensitization of Mtb H37Rv, H37Rv; M. tuberculosis H37Rv growth with meropenem, percent inhibition; hits of this screen are not shown here; inhibition, % at 25 µM; 330,000 tested, 0.27% active; AID 434955, 2010;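 active = about 74% or more and at least 40 points above the plate without the antibiotic, then above 30% in a dose series; inconclusive = first-round hits that could not be retested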;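 note: growth measured after seven days incubation then overnight dye step; 0% = bacteria only wells and 100% = bacteria with antibiotic; twin plates without the antibiotic show which effects depend on it; some results filed as inactive read as strong as hits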
RecA intein inh – Mtb RecA intein splicing inhibitors, primary screen, biochemical, fluorescence, HTS. cell-free RecA intein splicing. 290,000 tested, 0.75% active. inhibition, %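 (about 9 µM by stock and volumes)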. Protein RecA (Mycobacterium tuberculosis (strain ATCC 25618 / H37Rv)), P9WHJ3. AID 2221, 2009; in the data active = inhibition above about 30%; inconclusive = no clear call, values can overlap the other calls;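 note: 0% = vehicle wells and 100% = reference inhibitor control wells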
Target sequence (P9WHJ3 whole entry, looked up): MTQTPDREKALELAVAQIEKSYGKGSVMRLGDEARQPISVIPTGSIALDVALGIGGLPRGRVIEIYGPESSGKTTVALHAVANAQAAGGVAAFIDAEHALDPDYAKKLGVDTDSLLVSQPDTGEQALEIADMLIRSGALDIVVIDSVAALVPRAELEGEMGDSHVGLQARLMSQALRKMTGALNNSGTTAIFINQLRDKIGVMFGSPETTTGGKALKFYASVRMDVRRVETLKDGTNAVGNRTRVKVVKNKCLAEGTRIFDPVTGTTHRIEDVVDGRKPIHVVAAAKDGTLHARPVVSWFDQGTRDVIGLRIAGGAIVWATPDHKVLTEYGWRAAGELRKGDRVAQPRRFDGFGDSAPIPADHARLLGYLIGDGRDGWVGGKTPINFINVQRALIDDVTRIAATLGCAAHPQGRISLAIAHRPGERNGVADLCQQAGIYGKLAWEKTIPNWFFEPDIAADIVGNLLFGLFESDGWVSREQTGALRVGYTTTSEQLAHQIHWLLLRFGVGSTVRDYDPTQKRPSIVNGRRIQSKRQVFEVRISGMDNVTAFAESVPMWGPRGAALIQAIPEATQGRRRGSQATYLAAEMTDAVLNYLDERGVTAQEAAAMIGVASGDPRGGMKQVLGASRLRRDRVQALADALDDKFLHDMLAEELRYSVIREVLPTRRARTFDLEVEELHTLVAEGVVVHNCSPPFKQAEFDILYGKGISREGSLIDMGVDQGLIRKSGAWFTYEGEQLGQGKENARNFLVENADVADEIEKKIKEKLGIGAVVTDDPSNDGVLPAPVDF
YopH PTP inh – YopH tyrosine phosphatase inhibitors, primary screen, biochemical, fluorescence Ex485/Em525; YopH tyrosine phosphatase [Yersinia enterocolitica]; inhibition, %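 (about 10 µM by stock and volumes)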; 140,000 tested, 0.16% active;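 active = inhibition of 50% or more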;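 note: controls were vehicle for no effect and minimum signal wells for full effect; inactives centre near -20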
Arbovirus inh – antivirals against arbovirus infection, primary screen, cell-based, full library, 10K replicate subset. arbovirus infection cell-based antiviral screen. inhibition, % at 10 µM. 200,000 tested, 0.37% active;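 active = inhibition from about 30%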;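 note: bluetongue infection of BSR cells; cell survival read as ATP light after 72 h; 0% = infected wells without compound and 100% = uninfected wells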
Arbovirus inh repeat – also measured in Arbovirus inh; calls as there; inhibition, %; measured here: 10K subset replicate screen; many hits read low in the repeat;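 first of two repeat runs on a subset; 0% = infected and 100% = uninfected wells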
The depositor's hits bear a star; ? = inconclusive; . = not tested or not shown. This is a subset. The share of hits here may be higher or lower than overall.

SMILES | Mtb growth | Mtb bLac sens | RecA intein inh | YopH PTP inh | Arbovirus inh | others
Cc1ccc(CCN2CC(C(=O)N3CCN(c4ccc(F)cc4)CC3)CC2=O)cc1 (centres undefined) | 1% | -1 | 1.2 | -9 | 6
O=C(NC1CCCCCC1)C1CCN(S(=O)(=O)c2ccc(F)cc2)CC1 | 0% | 4 | 0.7 | -38 | -6
CN(C)C(=O)/C(C#N)=C\c1cc(Br)c(Sc2ccc(Cl)cc2)o1 | 10% | 3 | . | -9 | 3
COc1cc(NC(=O)CSc2nnc(Cn3nnc4ccccc43)n2C)cc(OC)c1 | 4% | -12 | -1.3 | -3 | -3
CC1CCN(CC(=O)NCc2ccco2)CC1 | -8% | -5 | . | . | 7
COc1ccc(OCCSCc2nnc(NC(=O)Nc3ccc(Cl)cc3)s2)cc1 | 1% | 2 | 2.4 | 2 | -26
CCSc1oc(-c2ccccc2)nc1S(=O)(=O)c1ccccc1 | -4% | 8 | 8.3 | 9 | -5
O=C(NCCc1csc(-c2cccnc2)n1)c1ccco1 | 4% | -1 | 1.6 | -6 | -1 | Arbovirus inh repeat=-1
Fc1ccc(Cn2nnnc2C(c2ccc(Cl)cc2)N2CCSCC2)cc1 (centres undefined) | -6% | 16 | 8.0 | 14 | -17
CCOc1cc2[nH]c(=O)n(Cc3cccc(OC)c3)c(=O)c2cc1OCC | -6% | -10 | 0.3 | -25 | 3
CCOC(=O)c1nc2nc(C)cc(=O)n2[nH]1 | -4% | -1 | -0.6 | -14 | 5 | Arbovirus inh repeat=0
CCn1c(C2CC(=O)N(c3cc(C)cc(C)c3)C2)nc2ccccc21 (centres undefined) | 78% | -5 | -0.6 | -16 | 7 | Arbovirus inh repeat=-4

Fetched one by one from above (2):
SMILES | Mtb growth | Mtb bLac sens | RecA intein inh | YopH PTP inh | Arbovirus inh | others
Cc1ccc(CCN2CC(C(=O)N3CCN(c4ccc(F)cc4)CC3)CC2=O)cc1 (centres undefined) | 1% | -1 | 1.2 | -9 | 6
O=C(NCCc1csc(-c2cccnc2)n1)c1ccco1 | 4% | -1 | 1.6 | -6 | -1 | Arbovirus inh repeat=-1

(list continues)
SMILES | Mtb growth | Mtb bLac sens | RecA intein inh | YopH PTP inh | Arbovirus inh | others
O=C(CN1C(=O)c2ccccc2C1=O)NCC(=O)OCC(=O)c1ccc(Cl)cc1 | -3% | 2 | -1.1 | -11 | -2
COc1cnc(NS(=O)(=O)c2ccc(N)cc2)nc1 | 0% | -1 | -1.5 | -24 | 7
Cc1ccc(O)c(N=Cc2sc3ccccc3c2Cl)c1 | 11% | ? | -3.7 | -19 | -13
Cc1c(/C(O)=C2\C(=O)C(=O)N(CCN(C)C)C2c2cccs2)cnn1-c1ccccc1 (centres undefined) | -9% | -8 | -0.9 | -23 | 2
Cc1ccc(C(N)=Nc2ccccc2)cc1 | -12% | -6 | -2.5 | . | .
O=C(CCn1nc(-c2ccccc2)ccc1=O)N1CCN(c2ccccc2)CC1 | . | -3 | 0.8 | . | .
CCn1cc(C2=NCC(C)O2)c2ccccc21 (centres undefined) | 2% | ? | -2.5 | -31 | 3
CC(C)(C#CC(O)(c1ccccc1)c1ccccc1)N1CCCCC1 | . | -6 | 3.0 | . | .
O=C(/C=C/c1ccccc1[N+](=O)[O-])NC1CCCC1 | -2% | -8 | 0.1 | . | 1
Cc1ccc(N(C=NC#N)CC(=O)N2CCN(c3ccccc3)CC2)cc1 | 1% | 7 | 0.9 | -49 | 0
CCCN(CC(=O)Nc1cc(Cl)ccc1Cl)C(=O)c1ccccc1SCC(=O)N1CCCC1 | . | -12 | 1.2 | . | .
CCN(Cc1ccccc1)C(=O)CSc1nc(C)cc(=O)[nH]1 | -5% | -1 | -3.4 | . | 4
CCN1CCN(C(=O)CN(c2ccccc2C)S(C)(=O)=O)CC1 | -3% | -11 | 3.0 | -4 | 1
O=C(Nc1nc2ccccc2[nH]1)c1cccs1 | 56% | 37 | 2.0 | . | -4
Cc1ccc(C(=O)C(OC(=O)CN2C(=O)c3ccccc3C2=O)c2ccccc2)cc1C (centres undefined) | -2% | 4 | 31* | -43 | 0
O=C(NC1CCCc2ccccc21)c1cc(S(=O)(=O)N2CCOCC2)ccc1F (centres undefined) | -4% | 5 | 2.2 | . | 17
O=C(CSc1nc2cccnc2n1Cc1ccccc1)NCc1ccco1 | 9% | -7 | -0.9 | -21 | -5
C/C(=N\NC(=O)c1nnn(-c2nonc2N)c1CSc1ccccc1)c1cccnc1 | . | 0 | 2.8 | . | .
CSc1ccc(S(=O)(=O)NCc2ccc(Cl)cc2Cl)cc1 | 1% | -8 | 11 | -18 | -1
CCc1cccc(C)c1NC(=S)NCC(c1cccnc1)N(C)C (centres undefined) | -13% | -9 | -0.5 | . | -6
CCCn1cnc2scc(-c3ccc(C)c(C)c3)c2c1=O | . | 3 | 1.9 | . | .
CCc1nnc(SCC(=O)Nc2ccccc2)n1CC1CCCO1 (centres undefined) | . | -10 | 3.7 | . | .
Cc1ccc(/C=C/C(=O)NCc2ccncc2)cc1 | 8% | 9 | -1.3 | -28 | -4
Nc1nc(SCC(=O)Nc2ccc(S(N)(=O)=O)cc2)n[nH]1 | -5% | 1 | -2.3 | . | 6

Continued, starting with the last two of the part before.
SMILES | Mtb growth | Mtb bLac sens | RecA intein inh | YopH PTP inh | Arbovirus inh | others
Cc1ccc(/C=C/C(=O)NCc2ccncc2)cc1 | 8% | 9 | -1.3 | -28 | -4
Nc1nc(SCC(=O)Nc2ccc(S(N)(=O)=O)cc2)n[nH]1 | -5% | 1 | -2.3 | . | 6
COc1ccc(CC(=O)Nc2nnc(-c3cccc([N+](=O)[O-])c3)s2)cc1 | . | 7 | -1.7 | -18 | -13
Cc1nnc(C)c2c(C)n(-c3cccc4cccnc34)c(C)c12 | 4% | -3 | -8.2 | . | 1
O=C(NCCCn1ccnc1)c1ccc(Cl)cc1[N+](=O)[O-] | -7% | -2 | -2.5 | . | 4
O=C(Nc1cc(=O)[nH]c(=O)[nH]1)c1cccc(Br)c1 | 4% | 1 | 3.3 | . | -6
Cc1cccc(C2=NNC(=O)C(c3ccc(Cl)cc3)C2)c1 (centres undefined) | 1% | -2 | 1.2 | . | 0
CCN1C=C(Cc2ccccc2C)C2=C(C1)C(c1ccccc1C)C(C#N)=C(N)O2 (centres undefined) | 10% | 28 | 1.2 | -8 | 1
CC(=O)c1ccc(N2CCN(C(=O)C3CCN(S(=O)(=O)c4cccs4)CC3)CC2)cc1 | . | 0 | -1.4 | . | .
CCOC(=O)c1c(C)[nH]c(C)c1S(=O)(=O)N(C)CC(=O)N1CCN(c2ccc(OC)cc2)CC1 | . | 15 | -3.4 | . | .
O=C(NCc1n[nH]c(=O)c2ccccc12)C1CC(=O)N(c2ccccc2)C1 (centres undefined) | . | -5 | 1.0 | . | .
O=C(COC(=O)c1ccc(O)cc1O)NC1CCS(=O)(=O)C1 (centres undefined) | -4% | -8 | -0.3 | . | .
COCCN(C(=O)COC(=O)CSc1ccc(Cl)cc1)c1c(N)n(Cc2ccccc2)c(=O)[nH]c1=O | . | -3 | -0.1 | . | .
CC1=CCC2C(=O)N(c3ccc(Br)cc3C)C(=O)C2C1 (centres undefined) | -2% | -1 | 0.9 | 5 | 1
CC(C)=N/N=c1\scc(C)n1Cc1ccco1 | -4% | -8 | -5.7 | . | 12
CCCc1nc2c(s1)CCc1onc(-c3ccc(OC)cc3)c1-2 | 1% | 7 | 0.0 | . | .
CC(Oc1ccc2ccc(=O)oc2c1)C(=O)NC1CC(C)(C)NC(C)(C)C1 (centres undefined) | . | -6 | 1.5 | . | .
Cc1ccc(C)c(S(=O)(=O)N2CCN(C(=O)c3cnccn3)CC2)c1 | -7% | -15 | -2.2 | 5 | 9
CCOC(=O)CN1C(=O)C(C)(C)Oc2ccc(C(=O)Nc3ccccc3)cc21 | -2% | -4 | -0.6 | -15 | -5
Cc1c(OCC(=O)NCc2ccccn2)ccc2c3c(c(=O)oc12)CCCC3 | . | 99 | -3.1 | . | .
Cc1cccc(CN(CC(=O)N/N=C/c2cccs2)S(=O)(=O)c2ccc(Cl)cc2)c1 | -5% | -3 | . | -139 | -33
c1ccc(Nc2nc(NCC3CCCO3)c3ccccc3n2)cc1 (centres undefined) | 3% | 22 | 9.7 | . | -25
O=C(NCCc1cccc(C(F)(F)F)c1)C1CCC(=O)N(C2CC2)C1 (centres undefined) | . | -13 | 1.3 | . | .
Cc1ccc2nc(NC(=S)NC(=O)c3ccco3)sc2c1 | 71% | 4 | 0.7 | -9 | -1
O=C(CCC1CCCCC1)NCc1ccc(F)cc1 | -3% | ? | -2.1 | -21 | 2
CCCCCCC1(C)NC(=S)N(c2ccccc2)N1 (centres undefined) | 45% | -1 | -0.5 | . | -21
O=C(CCSc1nnc(-c2ccco2)o1)Nc1ccc(Cl)cc1 | 25% | 92 | -0.9 | -22 | -4
CCO[C@H]1OC(C(=O)NCc2nc3ccccc3[nH]2)=C[C@@H](C)[C@@H]1CCCO | -3% | -2 | -3.8 | . | 1
COc1cc(OC)c(-c2nn3c(C4CCCCC4)nnc3s2)cc1OC | 2.2µM* | 100 | 2.4 | -64 | -35
CCOc1ccc2nc(NC(=O)COc3ccc(N(C)S(=O)(=O)c4ccc(C)cc4)cc3)sc2c1 | 14% | -6 | 0.1 | . | .
COc1cccc(C(=O)Oc2cc3c4c(c2)C(C)=CC(C)(C)N4C(=O)C3=O)c1 | 47% | 60 | 5.7 | -24 | -22
O=C(CSc1ccc(-c2ccco2)nn1)NCCc1ccccc1 | -3% | -6 | 7.9 | . | 5
O=C(O)/C(=C\c1cccc(F)c1)c1ccc(S(=O)(=O)N2CCCCC2)s1 | -2% | 4 | 4.6 | -11 | 3
COCCn1c(SCCCC(=O)c2ccc(Br)cc2)nnc1-c1ccncc1 | . | 0 | 0.1 | -3 | 3
CCCN(CCC)CCCn1c(=O)[nH]c2ccccc21 | 8% | 0 | 0.6 | . | 1
Cn1c(CNC(=O)c2ccccc2F)nnc1SCc1ccc(F)cc1 | 2% | -4 | . | -33 | 14
Cc1ccccc1NC(=S)N/N=C/C(C)c1ccccc1 (centres undefined) | -3% | -3 | 0.1 | . | 1
CN(CCNS(=O)(=O)c1ccc2c(c1)oc(=O)n2C)Cc1ccccc1 | 6% | -3 | -0.4 | -19 | 2 | Arbovirus inh repeat=-2
Cc1ccc(NC(=O)C2CCN(S(C)(=O)=O)CC2)cc1C | 2% | -3 | -0.6 | -20 | 4
OCC1(Cc2cccc(F)c2)CCN(Cc2ccc3cccc(F)c3n2)CC1 | -8% | -6 | 1.4 | . | -13
CCOC(=O)c1cc2sccc2n1CC(=O)Nc1ccc(OC)c(OC)c1 | 2% | 7 | 7.5 | 2 | 1
Cc1ccc(-n2nc3c(=O)n(C(C)C(=O)NCc4ccco4)nc(C)c3c2C)cc1 (centres undefined) | . | -7 | 0.4 | . | .
COc1ccccc1N1CCN(S(=O)(=O)CCNC(=O)CC2CCCCC2)CC1 | . | -18 | 2.1 | . | .
CCC(=O)NC(c1ccccc1)c1c(OC(C)=O)ccc2ccccc12 (centres undefined) | -1% | -10 | 1.0 | . | 4
CCOC(=O)c1sc(NC(=O)CSc2nnnn2-c2ccccc2)c(C(=O)OCC)c1C | 2% | 8 | 3.7 | -28 | 1
CNS(=O)(=O)c1ccc(NC(=O)Nc2ccc3c(c2)OCO3)cc1 | . | 1 | -0.1 | . | .
COc1ccc(Cn2cc([N+](=O)[O-])nc2C)cc1[N+](=O)[O-] | 0% | -2 | -0.2 | . | .
Cc1cc(O)cc(O)c1C(=O)Cc1ccccc1 | 2% | -3 | 1.9 | -24 | -3
Cc1ccccc1OCCCn1c(=O)sc2ccccc21 | -3% | -1 | 16 | -9 | -5
Oc1ccccc1-[n+]1c(-c2ccccc2)cc(-c2ccccc2)c(O)c1-c1ccccc1 | . | -6 | 8.9 | . | .
Cn1nnnc1NCc1cccc(Cl)c1Cl | -2% | -2 | -0.8 | . | 4

5 compounds already listed, ordered by formula weight, high to low.
SMILES | Mtb growth | Mtb bLac sens | RecA intein inh | YopH PTP inh | Arbovirus inh | others
COCCn1c(SCCCC(=O)c2ccc(Br)cc2)nnc1-c1ccncc1 | . | 0 | 0.1 | -3 | 3
O=C(NC1CCCCCC1)C1CCN(S(=O)(=O)c2ccc(F)cc2)CC1 | 0% | 4 | 0.7 | -38 | -6
Cc1ccc2nc(NC(=S)NC(=O)c3ccco3)sc2c1 | 71% | 4 | 0.7 | -9 | -1
Cc1ccccc1OCCCn1c(=O)sc2ccccc21 | -3% | -1 | 16 | -9 | -5
CCCCCCC1(C)NC(=S)N(c2ccccc2)N1 (centres undefined) | 45% | -1 | -0.5 | . | -21
